Bioassay records: PubChem BioAssay, several laboratories
MT1-MMP act inh: blockers of MT1-MMP proenzyme processing, primary screen, HT1080 RFP-PRO-GFP cells, GFP/RFP fluorescence; Matrix metalloproteinase-14 (Homo sapiens), P50281; GFP/RFP ratio fluorescence, overnight; percent of plate control window, DMSO zero; GFP/RFP ratio change, % at 20 µM; 360,000 tested, 0.061% active; AID 651647, 2012;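 active means GFP/RFP ratio change of at least 30% with cell ATP level not reduced by more than half and red fluorescence within 50% of control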; further: strong numbers were not always called active
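Assay system: HT1080 cells carrying an RFP-PRO-GFP reporter | Dosing: Single dose of 20 µM compound, 1% DMSO final | Incubation: Cells overnight before dosing, compound overnight, 37 °C, 5% CO2 | Evaluation: GFP/RFP fluorescence ratio | Control set: DMSO and RFP-L50D-GFP cell wells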
Rce1 inhib: yeast Rce1p protease inhibitors, primary screen, biochemical, fluorescence, cell-free homogeneous; CAAX prenyl protease 2 (Saccharomyces cerevisiae (strain ATCC 204508 / S288c)), Q03530; yeast membranes, quenched prenylated peptide cleavage fluorescence; calls only; 290,000 tested, 0.27% active; AID 2563, 2010;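 active means fall in fluorescence gain of 50% or more versus controls, with final raw signal at or below 3038400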;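 further: plate controls were neutral control wells for no effect and wells lacking membranes for full effect; tested at 10 µM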
Target sequence (Q03530 whole entry, looked up): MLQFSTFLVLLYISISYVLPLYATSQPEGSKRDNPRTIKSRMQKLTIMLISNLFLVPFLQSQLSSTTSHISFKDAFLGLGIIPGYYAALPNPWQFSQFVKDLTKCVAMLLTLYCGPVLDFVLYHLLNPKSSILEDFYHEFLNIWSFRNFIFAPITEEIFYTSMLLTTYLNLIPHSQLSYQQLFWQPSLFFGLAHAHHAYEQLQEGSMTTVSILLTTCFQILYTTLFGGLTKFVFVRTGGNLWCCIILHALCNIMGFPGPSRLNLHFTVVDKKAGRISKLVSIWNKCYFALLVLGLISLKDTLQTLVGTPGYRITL
eIF4H FP inh: human eIF4H binding inhibitors, primary screen, translation initiation inhibitor project, biochemical, uHTS, fluorescence polarization | eIF4H fluorescence polarization binding assay | inhibition, % at 35 µM | 290,000 tested, 0.94% active;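 active means 50% or more with normal probe brightness, or confirmed in later tests; about a fifth of its hits are not listed in these tables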;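 further: calls also rest on retests at 20 µM and on dose response follow-up; 0% = protein and probe with vehicle and 100% = probe without protein; strong numbers were not always called active; many hits fall short of the cut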
UUG fidelity: modulators of yeast start codon fidelity, primary screen, whole organism, S. cerevisiae, single point, plate reader; S. cerevisiae UUG-firefly luciferase reporter, luminescence/redox ratio; 350,000 tested, 0.13% active; activity score, % at 18.7 µM;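 active means replicate mean at a twofold rise or more, about +100% in these data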;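 further: firefly luciferase made from a UUG start codon reports start codon fidelity; reporter light over untreated wells divided by growth signal over untreated wells; some hits fall short of that in this replicate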
CSC inhib: cancer stem cell viability inhibitors, primary screen, luminescence. cancer stem cell-like cells viability. AID 2717, 2010. 300,000 tested, 1.1% active. inhibition, % at 7.5 µM;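 active means mean at 75% or more and at least half the replicates too; tested in HMLE shEcad cells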;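 further: 0% = median of negative and 100% = median of positive control wells; the first replicate is given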
PABP polyA inh: PABP poly(A) RNA binding inhibitors, primary screen, biochemical, fluorescence polarization, uHTS; Polyadenylate-binding protein 1 (Homo sapiens), P11940; inhibition, % at 35 µM; 290,000 tested, 1% active;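 active means 50% or more with normal probe brightness, or confirmed in later tests; about a fifth of its hits are not listed in these tables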;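 further: calls also rest on retests at 20 µM and on dose response follow-up; controls were probe without protein and protein plus probe with vehicle; some compounds called inactive have numbers as strong as hits; many hits fall short of the cut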
HIV Env fusion: inhibitors of HIV-1 Env-driven cell-cell fusion, primary screen, HeLa-JRFL effector, CEM21 target cells, luciferase; inhibition, % at 12.3 µM; 360,000 tested, 1.1% active;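 active means mean replicate inhibition score of at least 50 and every replicate individually at or above 50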;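 further: 0% = plate neutral controls and 100% = maraviroc near 300 nM; one replicate is shown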
eIF4H FP inh retest: further read-out of eIF4H FP inh, marked with its call; inhibition, %; compound at 20 µM; confirmation average;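 mean of two retest wells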
PABP polyA inh retest: recorded beside PABP polyA inh, whose call it bears; inhibition, %; compound at 20 µM; confirmation repeats;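 mean of two retest wells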
MT1-MMP act inh RFP: also measured in MT1-MMP act inh; calls as there; RFP signal change, %; measured here: RFP expression control read;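 0 = vehicle wells; hits needed this value within 50% of zero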
The depositor's hits bear a star; i = inactive; x = no result given.

SMILES | MT1-MMP act inh | MT1-MMP act inh RFP | Rce1 inhib | eIF4H FP inh | UUG fidelity | CSC inhib | PABP polyA inh | HIV Env fusion | others
ON=Cc1cccn1-c1ccccc1 | 0 | 4 | i | 2 | -34 | -10 | -12 | -2
COc1ccc(NC(=O)c2ccc3[nH]c(C)c(C)c3c2)c(OC)c1 | 3 | -1 | i | -10 | -6 | -1 | 0 | -17
S=C(NC1CCCCC1)N1CCn2cccc2C1c1cccnc1 (configuration not stated) | 2 | 5 | i | 15 | x | -13 | 8 | -13
Cc1ccccc1N1C(=O)CC(N2CCN(C(=O)c3ccco3)CC2)C1=O (configuration not stated) | 1 | 4 | i | 0 | -13 | 7 | -4 | 1
O=C(CCc1nnc(C2(c3ccc(Cl)cc3)CCC2)o1)N1CCCC(O)C1 (configuration not stated) | 0 | 3 | i | -11 | -1 | -20 | -3 | -5
COC(=O)c1ccc(C(=O)OC)c(NC(=S)N2CCCC(C)C2)c1 (configuration not stated) | 0 | -2 | i | 3 | x | 13 | -4 | 2
COc1cccc(CNC(=O)C2CCN(C(=O)N(C)C)CC2)c1 | 3 | 3 | i | -3 | -1 | 0 | 2 | x
CCOC(=S)N/C(=N\S(=O)(=O)c1ccc(C)cc1)c1ccccc1 | 7 | 1 | i | -5 | -5 | 0 | 0 | x
O=C(Nc1c(S(=O)(=O)c2ccccc2)csc1Br)c1ccccc1Cl | -1 | 1 | i | -2 | 3 | 2 | 3 | 10
O=C(Cn1cc2c(n1)CCCCC2)N1CCCCC1 | 5 | 4 | i | 9 | -16 | -9 | -16 | -18
CCOC1=C2[C@H](c3ccccc3)N(S(=O)(=O)c3ccccc3)C[C@H]2n2c(=O)n(-c3ccccc3)c(=O)n2C1 | -2 | -7 | x | x | -9 | x | x | -218
CC1(C)CC(=O)C=C(NCCN2CCN(C(=S)Nc3ccc(F)cc3)CC2)C1 | 4 | 1 | i | -11 | -30 | -1 | 2 | -4
COc1ccc(-c2[nH]c(-c3ccc(F)cc3)nc2SCC(=O)NCc2ccco2)cc1OC | 7 | 0 | i | 2 | -16 | -7 | -3 | 17
Cc1ccc2c(c1)C(=O)C(=O)N2CC1COc2ccccc2O1 (configuration not stated) | x | x | i | -10 | -9 | 12 | -8 | -25
c1cncc(-c2nnc3sc(-c4ccco4)nn23)c1 | 11 | 5 | i | -2 | -16 | 0 | -7 | -370
Cc1cccc(Nc2nnc(SCC(=O)Nc3ccccc3[N+](=O)[O-])s2)c1C | 0 | -5 | i | 3 | x | 2 | -10 | 22
C=CCOC(=O)C(=O)/C=C/c1coc2ccccc2c1=O | -12 | 8 | i | 96 | -23 | -8 | 72 | -3 | eIF4H FP inh retest=11;PABP polyA inh retest=26
CC(C)Oc1ccc(C2NC(=O)c3ccccc3O2)cc1 (configuration not stated) | -4 | 1 | i | -6 | -3 | -6 | 4 | -12
CC1CCc2c(sc(NC(=O)c3cccs3)c2C(=O)O)C1 (configuration not stated) | -22 | -12 | i | -7 | x | 36 | 19 | 11
Cc1cc2oc(C(=O)NCc3ccccc3)cc(=O)c2cc1C | 0 | -7 | i | -7 | -3 | -1 | 8 | 11
CC1(C)CN(CCc2ccccc2)C(=O)[C@H]1CC(=O)Nc1ccc(Br)cc1 | 1 | 4 | x | x | 7 | x | x | -25
Cc1csc(N2CCCC2=O)n1 | 0 | 3 | i | -9 | -10 | 6 | 9 | -14
N#Cc1nc(-c2cccc3ccccc23)oc1N | -1 | 3 | x | x | -11 | 8 | x | x
Cc1nonc1CN(C)C(=O)c1cc(COc2ccc(F)cc2Cl)on1 | 9 | -1 | i | -7 | -14 | 12 | 9 | x

Sorted by molar mass (highest first): some entries from above.
SMILES | MT1-MMP act inh | MT1-MMP act inh RFP | Rce1 inhib | eIF4H FP inh | UUG fidelity | CSC inhib | PABP polyA inh | HIV Env fusion | others
COc1ccc(-c2[nH]c(-c3ccc(F)cc3)nc2SCC(=O)NCc2ccco2)cc1OC | 7 | 0 | i | 2 | -16 | -7 | -3 | 17
CC1(C)CN(CCc2ccccc2)C(=O)[C@H]1CC(=O)Nc1ccc(Br)cc1 | 1 | 4 | x | x | 7 | x | x | -25
CC1CCc2c(sc(NC(=O)c3cccs3)c2C(=O)O)C1 (configuration not stated) | -22 | -12 | i | -7 | x | 36 | 19 | 11
Cc1cc2oc(C(=O)NCc3ccccc3)cc(=O)c2cc1C | 0 | -7 | i | -7 | -3 | -1 | 8 | 11
C=CCOC(=O)C(=O)/C=C/c1coc2ccccc2c1=O | -12 | 8 | i | 96 | -23 | -8 | 72 | -3 | eIF4H FP inh retest=11;PABP polyA inh retest=26
Cc1csc(N2CCCC2=O)n1 | 0 | 3 | i | -9 | -10 | 6 | 9 | -14

Additional records:
SMILES | MT1-MMP act inh | MT1-MMP act inh RFP | Rce1 inhib | eIF4H FP inh | UUG fidelity | CSC inhib | PABP polyA inh | HIV Env fusion | others
CN(C(=O)CCc1ccccc1F)C1CCCN(Cc2ccccc2F)C1 (configuration not stated) | -2 | 2 | i | 9 | 9 | -12 | -12 | -12
CC(=O)Nc1ccc(S(=O)(=O)NNC(=S)NCc2ccco2)cc1 | 2 | 3 | i | -3 | -16 | -8 | 3 | x
C=CCn1c(CCCOc2ccc(Cl)cc2Cl)n[nH]c1=S | -1 | 5 | i | -4 | x | 21 | 1 | -21
COC(=O)c1ccc(CSc2nc(C)nc3c2c(=O)n(C)c(=O)n3C)o1 | 5 | 0 | i | 2 | 0 | -7 | 1 | -3
COc1cc(NC(=O)Cc2nn(C)c(=O)c3ccccc23)cc(OC)c1 | -7 | -24 | i | -13 | -9 | -5 | -14 | x
CC(=O)c1ccc(-c2ccccc2[C@H]2[C@H]3C=CC[C@@H](C)[C@@H]3C(=O)N2Cc2ccccc2)cc1 | x | x | i | -15 | x | x | -5 | x
C/C(CC(=O)Nc1ccc(N(C)C)cc1)=N\NC(=O)c1ccc(Cl)cc1 | 1 | 4 | i | 4 | -32 | 9 | 7 | -10
O=C(Nc1cccc(-n2cnnn2)c1)c1cc2ccccc2o1 | 5 | 3 | i | 13 | -8 | 5 | -4 | -19
COc1ccc(/C(C)=N/NC(=O)CNC(=O)CCc2ccccc2)c(OC)c1 | 0 | -2 | i | 2 | x | 7 | 1 | -2
CC1CN(CCc2ccccc2)c2nc3c(c(=O)n(C)c(=O)n3C)n2C1 (configuration not stated) | -7 | 1 | i | -13 | -24 | 22 | 8 | 9
COc1ccc(/C=N/NC(=O)CCSc2nc3ccccc3s2)cc1OC | -4 | -6 | i | -10 | -20 | 9 | -4 | 2
O=C(CCN1CCOCC1)Nc1cc(C(=O)Nc2ccccc2F)ccc1N1CC2CC(C1)c1cccc(=O)n1C2 (configuration not stated) | 0 | 0 | i | -6 | -17 | -25 | 2 | -4

Grouped by structure: the compounds so far with an NH in an aromatic ring.
SMILES | MT1-MMP act inh | MT1-MMP act inh RFP | Rce1 inhib | eIF4H FP inh | UUG fidelity | CSC inhib | PABP polyA inh | HIV Env fusion | others
COc1ccc(NC(=O)c2ccc3[nH]c(C)c(C)c3c2)c(OC)c1 | 3 | -1 | i | -10 | -6 | -1 | 0 | -17
COc1ccc(-c2[nH]c(-c3ccc(F)cc3)nc2SCC(=O)NCc2ccco2)cc1OC | 7 | 0 | i | 2 | -16 | -7 | -3 | 17
C=CCn1c(CCCOc2ccc(Cl)cc2Cl)n[nH]c1=S | -1 | 5 | i | -4 | x | 21 | 1 | -21

Additional structures follow:
SMILES | MT1-MMP act inh | MT1-MMP act inh RFP | Rce1 inhib | eIF4H FP inh | UUG fidelity | CSC inhib | PABP polyA inh | HIV Env fusion | others
Cc1ccc(S(=O)(=O)N(C)c2ccc(OC(=O)c3cccs3)cc2)cc1C | -4 | 0 | x | x | -16 | -12 | x | x
COc1ccc(CNC(=O)c2ccc3nccnc3c2)cc1 | -3 | -3 | i | 4 | -12 | x | -4 | x
Cc1cccc(N(CC(=O)N/N=C/c2cc([N+](=O)[O-])ccc2Cl)S(C)(=O)=O)c1C | 4 | -6 | i | -1 | -4 | -5 | 4 | x
NC(=O)C1(N2CCCCC2)CCN(C2CC(=O)N(Cc3ccc(N4CCCC4=O)cc3)C2=O)CC1 (configuration not stated) | 0 | 1 | i | -8 | -18 | -6 | 0 | -1
NC(=O)COc1ccc(/C=N\NC(=O)CC(=O)NCCc2ccccc2)cc1 | -3 | 0 | i | -15 | -20 | -7 | 7 | -4
O=C(O)CNC(=O)C(c1ccccc1)c1ccccc1 | -2 | 2 | i | -14 | x | -5 | 5 | 4
O=C(c1cc(-c2ccccc2)n[nH]1)N1CCN(S(=O)(=O)c2ccccc2)CC1 | -2 | -1 | i | 2 | -7 | x | 2 | 2
CCc1c(C(=O)Nc2cc(C)cc(C)c2)[nH]c(C)c1C(C)=O | -2 | -3 | i | 0 | x | 1 | 0 | -47
Cc1ccc(SCCN2CCN(CCc3ccccc3)CCC2=O)cc1 | 4 | 4 | i | -3 | -13 | 23 | -3 | 7
c1ccc(Cc2nn[nH]n2)cc1 | 10 | 10 | i | -2 | 8 | 0 | 6 | x
O=C1CC2c3ccccc3C1C1C(=O)N(CCO)C(=O)C21 (configuration not stated) | 0 | 5 | i | -4 | x | -4 | 7 | 5
CC1C(=O)N2CCCc3cc(NS(=O)(=O)c4ccc([N+](=O)[O-])cc4)cc1c32 (configuration not stated) | 1 | 2 | i | x | 6 | -5 | x | 3
CN(C1CCCCC1)S(=O)(=O)c1ccccc1 | 7 | 6 | i | -9 | -13 | -8 | 0 | 11
CCOc1ccc(OCCSc2nc(N)cc(=O)[nH]2)cc1 | 5 | -7 | i | 3 | x | -2 | 2 | -8
CCc1nc(SCC(=O)c2ccc(Cl)s2)c2oc3ccccc3c2n1 | -4 | -6 | i | 0 | -14 | -3 | 2 | x
CCN(C(=O)Nc1cccc(Cl)c1)c1ccccc1 | -1 | -2 | i | 8 | -9 | -19 | 3 | 14
COc1ccc(C(=O)C2CCCN(C(=O)C3CCOCC3)C2)cc1OC (configuration not stated) | -5 | -2 | i | -8 | -10 | -3 | -2 | 7
O=C(O)c1cccc(OCCN2CCCC2=O)c1 | 0 | 2 | i | 2 | -11 | -13 | 7 | -7
Cn1nc(C(=O)OCC(=O)Nc2cccc(S(=O)(=O)N3CCCC3)c2)c2ccccc2c1=O | 2 | 1 | i | 0 | x | -20 | -4 | 8
CCOC(=O)c1cn(CC)c2cc(N3CCN(C)CC3)c(F)cc2c1=O | 0 | -2 | i | -6 | x | -16 | 2 | 3
CCC(Oc1ccc2ccccc2c1)C(=O)O (configuration not stated) | -2 | 1 | i | -10 | -5 | 4 | 8 | x
CC1(Oc2cccc(F)c2)CCN(Cc2csc3ccccc23)C1 (configuration not stated) | -4 | 2 | x | x | -5 | x | x | 17

Random excerpt: two compounds from above
SMILES | MT1-MMP act inh | MT1-MMP act inh RFP | Rce1 inhib | eIF4H FP inh | UUG fidelity | CSC inhib | PABP polyA inh | HIV Env fusion | others
COc1ccc(NC(=O)c2ccc3[nH]c(C)c(C)c3c2)c(OC)c1 | 3 | -1 | i | -10 | -6 | -1 | 0 | -17
NC(=O)COc1ccc(/C=N\NC(=O)CC(=O)NCCc2ccccc2)cc1 | -3 | 0 | i | -15 | -20 | -7 | 7 | -4

Not all compounds are listed; rates above refer to the full screens.
